Mtb growth – M. tuberculosis H37Rv growth inhibitors, H37Rv strain (AID 1626); hit rate 0.95% among 220,000; M. tuberculosis H37Rv growth inhibition; higher % means a stronger effect; inhibition, % at 10 µM, or IC50 in µM where a hit was titrated;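 active = confirmed in a dose series; inconclusive = inhibition above 80% but not taken into the dose series; inactive = below 80% or under 30% at every dose of the series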;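 also: bacteria incubated seven days before Alamar blue readout; 0% = bacteria only wells and 100% = bacteria with antibiotic wells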
YopH inh – YopH tyrosine phosphatase inhibitors, primary screen, biochemical, fluorescence Ex485/Em525; AID 898, 2007; YopH tyrosine phosphatase [Yersinia enterocolitica]; inhibition, %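 (about 10 µM by stock and volumes)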; hit rate 0.16% among 140,000;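 active = inhibition of 50% or more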;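 also: controls were vehicle for no effect and minimum signal wells for full effect; inactives centre near -20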
RecA intein inh – Mtb RecA intein splicing inhibitors, primary screen, biochemical, fluorescence, HTS | AID 2221, 2009 | hit rate 0.75% among 290,000 | inhibition, %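 (about 9 µM by stock and volumes)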 | Protein RecA (Mycobacterium tuberculosis (strain ATCC 25618 / H37Rv)), P9WHJ3 | cell-free RecA intein splicing; in the data active = inhibition above about 30%; inconclusive = no clear call, values can overlap the other calls;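 also: 0% = vehicle wells and 100% = reference inhibitor control wells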
Target sequence (P9WHJ3 whole entry, looked up): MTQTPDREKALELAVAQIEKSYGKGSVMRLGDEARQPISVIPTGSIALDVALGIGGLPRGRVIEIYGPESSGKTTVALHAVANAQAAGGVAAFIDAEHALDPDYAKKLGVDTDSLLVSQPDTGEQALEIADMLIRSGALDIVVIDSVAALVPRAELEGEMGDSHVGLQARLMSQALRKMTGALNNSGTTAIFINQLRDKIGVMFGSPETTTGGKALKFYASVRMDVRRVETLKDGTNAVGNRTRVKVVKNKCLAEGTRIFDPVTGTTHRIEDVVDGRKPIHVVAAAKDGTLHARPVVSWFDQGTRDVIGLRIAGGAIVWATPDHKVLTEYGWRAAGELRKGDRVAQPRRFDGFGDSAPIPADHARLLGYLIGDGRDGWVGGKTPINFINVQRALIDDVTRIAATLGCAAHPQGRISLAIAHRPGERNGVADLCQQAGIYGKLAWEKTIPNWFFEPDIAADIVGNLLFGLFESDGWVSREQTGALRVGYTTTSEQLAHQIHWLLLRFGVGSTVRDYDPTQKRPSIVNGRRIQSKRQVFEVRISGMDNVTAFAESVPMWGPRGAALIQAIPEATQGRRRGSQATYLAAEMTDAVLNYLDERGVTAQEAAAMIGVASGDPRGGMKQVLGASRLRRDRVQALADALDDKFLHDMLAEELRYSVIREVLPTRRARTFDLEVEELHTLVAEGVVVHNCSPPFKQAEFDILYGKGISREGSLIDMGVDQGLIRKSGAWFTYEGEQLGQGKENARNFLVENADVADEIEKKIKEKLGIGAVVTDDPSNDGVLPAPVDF
Mtb bLac sens – beta-lactam sensitization of Mtb H37Rv, H37Rv | M. tuberculosis H37Rv growth with meropenem, percent inhibition; hits of this screen are not shown here | inhibition, % at 25 µM | hit rate 0.27% among 330,000;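 active = about 74% or more and at least 40 points above the plate without the antibiotic, then above 30% in a dose series; inconclusive = first-round hits that could not be retested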;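 also: growth measured after seven days incubation then overnight dye step; 0% = bacteria only wells and 100% = bacteria with antibiotic; twin plates without the antibiotic show which effects depend on it; some results filed as inactive read as strong as hits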
Arbovirus inh – antivirals against arbovirus infection, primary screen, cell-based, full library, 10K replicate subset; inhibition, % at 10 µM; arbovirus infection cell-based antiviral screen; hit rate 0.37% among 200,000;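 active = inhibition from about 30%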;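 also: bluetongue infection of BSR cells; cell survival read as ATP light after 72 h; 0% = infected wells without compound and 100% = uninfected wells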
Arbovirus inh repeat – recorded beside Arbovirus inh, whose call it bears; inhibition, %; measured here: 10K subset replicate screen; many hits read low in the repeat;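 first of two repeat runs on a subset; 0% = infected and 100% = uninfected wells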
* hit, by the source's call; ? = inconclusive; / = no result given. Some of the compounds tested. The share of hits here may be higher or lower than overall.

SMILES	Mtb growth	YopH inh	RecA intein inh	Mtb bLac sens	Arbovirus inh	others
CCOc1ccc(C(=O)Nc2cccc3nsnc23)cc1[N+](=O)[O-]	-6%	/	2.6	-3	-17
COC(=O)CN1C(=O)Nc2ccc(C)cc2C1c1ccccc1 (stereo unspecified)	-9%	/	-1.0	2	-6
O=C(CN1c2ccccc2Sc2ccccc21)NNC(=O)Nc1ccc(Cl)c(Cl)c1	0%	/	2.0	1	/
CCOC(=O)c1sc2c(c1C)c(=O)n(CCO)c(=O)n2Cc1ccccc1	/	/	0.0	7	/
COc1ccc(N2CCN(C(=O)COc3ccc(S(=O)(=O)N4CCOCC4)cc3C)CC2)cc1	/	/	-2.0	2	/
O=C(COC(=O)c1cc(Br)ccc1O)Nc1cc(S(=O)(=O)N2CCCC2)ccc1Cl	6%	/	-1.1	/	6
Cc1c(C(=O)Nc2ccc(-c3nnc4n3CCCCC4)cc2)oc2ccc(Br)cc12	?	-27	3.4	96	0
O=C(Nc1ncccn1)c1ccc([N+](=O)[O-])cc1[N+](=O)[O-]	/	/	-3.3	4	/
CN(C)S(=O)(=O)c1ccc(C(=O)Nc2cccc(S(=O)(=O)NC3=NCCC3)c2)cc1	-6%	/	0.3	-5	/
Cc1[nH]c2ccccc2c1C(=O)/C=C\c1ccccc1Cl	4%	-31	2.7	-3	5
CCCCN(C)C(=O)Cn1cnc2sc(C)c(S(=O)(=O)N3CCN(c4ccccc4OC)CC3)c2c1=O	/	/	0.6	2	/
O/N=C/c1ccccc1Oc1ccccc1	0%	-5	5.7	50	3
Cc1ccc(C(C(=O)NC2CCCC2)N(C(=O)CNC(=O)c2ccco2)c2ccccc2)o1 (stereo unspecified)	/	/	-0.8	-10	/
COCc1nnc(NC(=O)CS(=O)(=O)Cc2ccccc2)s1	-2%	36	3.4	-1	-3
COc1ccc(Nc2oc(-c3ccccc3F)nc2C#N)cc1	3%	/	-5.7	-12	/
COc1ccc(N2CCN(C3CC(=O)N(Cc4ccc(N5CCCC5=O)cc4)C3=O)CC2)cc1 (stereo unspecified)	4%	-23	-1.4	4	-4
Cn1c(SCC(=O)N2CCc3ccccc32)nc2cccnc21	3%	-3	1.6	-8	0
CCCOc1cc(C)c(Cl)cc1S(=O)(=O)N(CC)CC	-1%	-21	4.4	3	-2
CNC(=O)c1ccc(-c2ccccc2)s1	2%	5	2.7	-12	-6
CSc1ccccc1NC(=O)c1ccccc1N(C)S(C)(=O)=O	-5%	-3	8.6	-14	-5
Cc1ccc(OCC(=O)N2CC3(C)CC2CC(C)(C)C3)cc1 (stereo unspecified)	-5%	-6	-2.0	0	11
COc1ccc(OCC(O)CNS(=O)(=O)c2ccc(NC(C)=O)cc2)cc1 (stereo unspecified)	/	/	-0.4	-4	/
COc1ccc(NC(=O)Nc2ccccn2)cc1OC	-5%	/	-1.1	1	/
Cc1ccc(S(=O)(=O)N2CCN(C(=O)c3ccc(Br)o3)CC2)c(C)c1	/	/	2.5	2	/
CC(C)Oc1ccc(C2C(C(=O)c3ccco3)=C(O)C(=O)N2Cc2cccnc2)cc1 (stereo unspecified)	-8%	-17	1.9	6	5

Pulled by structure from above:
SMILES	Mtb growth	YopH inh	RecA intein inh	Mtb bLac sens	Arbovirus inh	others
COCc1nnc(NC(=O)CS(=O)(=O)Cc2ccccc2)s1	-2%	36	3.4	-1	-3
Cn1c(SCC(=O)N2CCc3ccccc32)nc2cccnc21	3%	-3	1.6	-8	0
Cc1c(C(=O)Nc2ccc(-c3nnc4n3CCCCC4)cc2)oc2ccc(Br)cc12	?	-27	3.4	96	0

Returning to the listing, starting 2 compounds before the break.
SMILES	Mtb growth	YopH inh	RecA intein inh	Mtb bLac sens	Arbovirus inh	others
Cc1ccc(S(=O)(=O)N2CCN(C(=O)c3ccc(Br)o3)CC2)c(C)c1	/	/	2.5	2	/
CC(C)Oc1ccc(C2C(C(=O)c3ccco3)=C(O)C(=O)N2Cc2cccnc2)cc1 (stereo unspecified)	-8%	-17	1.9	6	5
CCn1c(SCC(=O)N2CCN(c3ccccc3)CC2)nnc1-c1c[nH]c2ccccc12	8%	-39	1.0	-7	-12
CCN1C(=O)CC(c2ccco2)Sc2ccccc21 (stereo unspecified)	4%	-22	-0.9	3	-11
Cc1nc(SCC(=O)O)c(C#N)c(C)c1CC(=O)c1ccccc1	-6%	/	-0.2	-2	10
COc1cc(OC)c(C(=O)N2CCCC2)cc1OC	-1%	/	-1.6	-5	2
C=CCN=C(NC#N)SCc1ccccc1	10%	-34	2.9	-6	-4
COc1ccc(CNC(=O)[C@H](Cc2ccccc2)NC(=O)C2CCN(C(=O)[C@H](C)N)CC2)cc1	/	/	-0.6	-1	/
Cc1ccc(C(=O)C2CCN(CC(=O)Nc3ccccc3C)CC2)cc1	/	/	1.9	8	/
N#Cc1ccc(-c2ccc(OCC(=O)NCC(=O)Nc3ccc(F)c(F)c3F)cc2)cc1	5%	-12	2.9	3	-2
COc1ccc(CNC(=O)CSc2nnc3c(n2)[nH]c2ccc(C)cc23)cc1	/	/	-2.3	-1	/
Cc1cc(=O)oc2cc(OCC(=O)OCC(=O)NCCc3ccccc3)ccc12	-7%	/	5.5	-2	16
Cc1nc2ccc(C(=O)c3ccccc3)cc2[nH]1	-2%	8	/	?	-3	Arbovirus inh repeat=6
Cn1[nH]c(C(F)(F)F)cc1=O	0%	/	-6.1	10	8
O=C(CC1NCCNC1=O)Nc1ccc2c(c1)OCCO2 (stereo unspecified)	-7%	-23	/	-6	2
CC(=O)c1ccc(N2CCC(C)CC2)c(F)c1	-1%	/	0.2	-1	18
O=C(OC1CCOC1=O)C1CCN(S(=O)(=O)c2c(Cl)cccc2Cl)CC1 (stereo unspecified)	/	/	-1.0	0	/
O=C(NCCc1ccc(Cl)cc1)c1cc2ccccn2n1	6%	/	2.6	10	/
Cc1ccc(Sc2ccc(/C=C3/C(=O)NN(c4ccccc4)C3=O)o2)cc1	76%	/	-11	96	/
c1ccc(CSc2ccc(-c3cccs3)nn2)cc1	3%	-31	-2.0	-6	-2
CC1CCN(C(=O)c2cc(-c3ccccc3O)on2)CC1	10%	-35	7.7	5	21	Arbovirus inh repeat=6
COc1cccc(OC)c1OCC(C)CNCC1CCCO1 (stereo unspecified)	-4%	10	-1.3	9	7
COc1cc(SC)ccc1C(=O)Nc1ncc(Cl)cc1Cl	1%	/	0.0	-3	5
CCOC(=O)c1[nH]c2ccc(C)cc2c1NC(=O)CN1CCCCC1	-5%	5	6.1	-11	5
CCCCn1c(SCC(=O)NCc2ccco2)nc2c(sc3ccccc32)c1=O	-2%	8	1.1	-5	5
C=CCNC(=S)NNC(=O)c1cc(C)nc2ccccc12	6%	13	-1.4	-3	3
Cc1cc(=O)n2c3ccccc3n(CC(O)CN3CCCCC3)c2c1C#N (stereo unspecified)	-4%	-12	-0.7	0	-1

The last 5 entries of the part above are carried over, then new ones follow:
SMILES	Mtb growth	YopH inh	RecA intein inh	Mtb bLac sens	Arbovirus inh	others
COc1cc(SC)ccc1C(=O)Nc1ncc(Cl)cc1Cl	1%	/	0.0	-3	5
CCOC(=O)c1[nH]c2ccc(C)cc2c1NC(=O)CN1CCCCC1	-5%	5	6.1	-11	5
CCCCn1c(SCC(=O)NCc2ccco2)nc2c(sc3ccccc32)c1=O	-2%	8	1.1	-5	5
C=CCNC(=S)NNC(=O)c1cc(C)nc2ccccc12	6%	13	-1.4	-3	3
Cc1cc(=O)n2c3ccccc3n(CC(O)CN3CCCCC3)c2c1C#N (stereo unspecified)	-4%	-12	-0.7	0	-1
CCCCCc1cc(=O)oc2c(C(CCN(CC)CC)c3ccc(OC)cc3)c(OC)cc(OC)c12 (stereo unspecified)	9.1µM*	/	10	100	/
CC1CC(C)CN(C(=O)CCc2ccccc2)C1 (stereo unspecified)	0%	/	-3.3	-3	3
CCc1nn2c(N3CCOCC3)cc(C)nc2c1-c1ccccc1	/	/	-0.7	-4	/
CC(=O)/C(=N/Nc1ccccc1)Sc1nnc(C(O)c2ccccc2)n1-c1ccccc1 (stereo unspecified)	-5%	-21	-0.6	4	18
CC(=O)Oc1ccc(C2OC(=O)c3ccccc3N2C(C)=O)cc1 (stereo unspecified)	-6%	-1	1.5	11	5
Cc1nnsc1-c1nnc(SCC(=O)c2ccccc2)n1C1CC1	-3%	/	0.3	0	/
Cc1cccc(-n2nc([N+](=O)[O-])c(N3CCN(C(=O)c4ccco4)CC3)[n+]2[O-])c1	2%	/	12	-5	8
O=C(NC1CCCC1)C(c1ccsc1)N(C(=O)Cc1cccs1)c1cccc(F)c1 (stereo unspecified)	-7%	-42	0.6	1	4
Fc1ccc(-c2csc3ncnc(Nc4ccc(N5CCOCC5)cc4)c23)cc1	24%	-42	6.1	32	-23
O=C(Oc1c(Cl)cc(Cl)c2cccnc12)c1cccc([N+](=O)[O-])c1	?	-17	-1.4	98	-12
COc1ccc(-c2cnn3c(N)c(S(=O)(=O)c4ccccc4)cnc23)cc1	6%	-40	0.0	2	-9
Cc1ccc(NS(=O)(=O)c2ccc(Cl)c(C(=O)O)c2)cc1S(=O)(=O)N1CCOCC1	-10%	-9	0.7	0	-5
COc1cccc(OCc2nnc(SCC(=O)OCc3ccccc3)o2)c1	-6%	30	4.2	8	4
COc1ccc(C(=O)Nc2ccccc2C(=O)NC(Cc2ccc(O)cc2)C(=O)NNC(=O)c2ccccc2)cc1 (stereo unspecified)	-4%	-3	3.5	6	11
CC(C)[C@H](NC(=O)N1CC(=O)Nc2ccccc21)C(=O)N[C@@H](Cc1ccccc1)C(=O)O	/	/	0.9	-4	/
S=c1[nH]nc(-c2cccnc2)n1/N=C/C=C/c1ccco1	-8%	/	-1.2	0	8
Nc1nc(NCC(=O)O)nc(N2CCCCCC2)c1[N+](=O)[O-]	/	/	-2.2	?	/
CC(C)(C)OC(=O)NCc1ccc(NC(=O)c2nc[nH]c2C(=O)N[C@@H](Cc2ccccc2)C(=O)OCc2ccccc2)cc1	4%	/	2.0	-17	/
CCCC(O)(CCN1CCOCC1)c1ccc(Br)cc1 (stereo unspecified)	2%	-40	0.6	5	8
Cc1ccc(-n2c(O)c(C=NCCN(C)C)c(=O)[nH]c2=O)cc1	-1%	-37	1.4	2	6
O=C(Nc1ccc(Cl)cc1C(=O)c1ccccc1)c1ccco1	0%	-31	0.2	-1	-2
COc1ccc(CCNS(=O)(=O)CC23CCC(CC2=O)C3(C)C)cc1OC (stereo unspecified)	/	/	0.9	-9	/
